Rango dissoc inh – inhibitors of RanGTP-induced Rango-importin beta complex dissociation | O95149+P62826 | Potency, µM (titrated, usually from 46.1 µM), for inactives: at the top dose activity change, negative = inhibition | AID 540253 | hit rate 0.071% among 340,000 | Biochemical FRET Rango-importin beta, RanGTP-induced dissociation; active means falling FRET ratio curve, often poorly fitted, with flat reads before Ran was added; inconclusive means other falling curves, or compound fluorescence or quenching; inactive means flat or rising ratio curve;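 also: potency is read from the fitted curve at half-maximal effect; % of control where 0% means no effect; nearly all actives have a fitted effect of over 45% in size; -100% = wells without RanGTP and RCC1; the record marks most hits as doubtful in a second field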
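Rango (0.1 uM)–importin beta (0.25 uM) complex; RanGTP-RCC1 trigger; 45 min RT; CFP/YFP FRET read.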
miR-21 reporter – miR-21 reporter, rising signal. AID 2288. Potency, µM (top dose mostly 38.3 µM), for the others: at the highest dose reporter change, positive = more light. HeLa miR-21 FLuc reporter, luciferase, 48 h. 340,000 tested, under 10 active; active = well fitted rising curve with a large enough effect; inconclusive = small, poorly fitted or top-dose-only effect; inactive = no such curve, though single readings can be large or run the other way;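 also: % of control where 0% means no effect; miR-21 action dims this reporter so a rising signal means less miR-21 action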
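HeLa miR-21-FLuc reporter line, endogenous miR-21; 2000 cells/well in DMEM/10% FBS; compound titration up to ~40uM final, 48 h, 37 degree Celsius; luciferase detection reagent, 15 min lysis, CCD luminescence.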
Rango complex inh – Rango-importin beta binding inhibition; Q14974; Rango CFP/YFP FRET sensor + importin beta, 45 min; Potency, µM (series often up to 92.2 µM), for the others: top-dose inhibition of complex formation; hit rate 0.031% among 340,000; active = rising FRET ratio curve, often small or poorly fitted; inconclusive = mostly compound fluorescence or quenching in the first reads; inactive = flat curves in all reads;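 also: potency is read from the fitted curve at half-maximal effect; 0% = DMSO wells and 100% = buffer wells lacking importin beta; nearly all actives have a fitted effect of over 15% in size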
Target sequence (Q14974 whole entry, looked up): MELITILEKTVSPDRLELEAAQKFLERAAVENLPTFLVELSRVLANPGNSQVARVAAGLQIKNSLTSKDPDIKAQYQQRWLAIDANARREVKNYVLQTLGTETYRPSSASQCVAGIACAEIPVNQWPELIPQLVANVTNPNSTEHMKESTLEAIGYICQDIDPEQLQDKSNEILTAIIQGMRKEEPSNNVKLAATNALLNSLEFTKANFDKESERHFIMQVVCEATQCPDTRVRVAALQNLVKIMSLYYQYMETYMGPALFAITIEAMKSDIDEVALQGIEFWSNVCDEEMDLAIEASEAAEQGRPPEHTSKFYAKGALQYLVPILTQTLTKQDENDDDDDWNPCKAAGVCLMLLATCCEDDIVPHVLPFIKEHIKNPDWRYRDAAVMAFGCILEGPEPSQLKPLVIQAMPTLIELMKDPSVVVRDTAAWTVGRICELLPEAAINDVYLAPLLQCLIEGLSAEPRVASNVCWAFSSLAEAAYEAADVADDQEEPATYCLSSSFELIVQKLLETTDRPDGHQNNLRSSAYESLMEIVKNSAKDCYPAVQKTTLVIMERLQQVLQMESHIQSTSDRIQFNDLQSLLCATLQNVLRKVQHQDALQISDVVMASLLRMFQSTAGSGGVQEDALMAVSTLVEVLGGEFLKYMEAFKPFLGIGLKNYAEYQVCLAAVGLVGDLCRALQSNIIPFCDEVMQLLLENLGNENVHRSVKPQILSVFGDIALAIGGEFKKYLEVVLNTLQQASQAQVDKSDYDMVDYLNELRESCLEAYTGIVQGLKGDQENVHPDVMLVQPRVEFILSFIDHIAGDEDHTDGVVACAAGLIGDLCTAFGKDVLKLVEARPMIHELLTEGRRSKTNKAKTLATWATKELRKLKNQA
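FRET biosensor (snurportin 1 IBB flanked by EYFP and cerulean), 50 nM, with compound 5 min, then 0.125 microM importin beta in PBS, 1 mM DTT, 0.02% Tween-20, 0.1% BSA. CFP/YFP ratio read after 45 min at room temperature; pre-read flags interference.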
GLA inh pH 4.5 – inhibitors of human alpha-galactosidase A at pH 4.5 | purified enzyme, 4-MU-alpha-Gal fluorescence, pH 4.5 | activity change, negative = inhibition, % at 105 µM | 230,000 tested, under 10 active; inconclusive = small, poorly fitted or top-dose-only inhibition, or a rising curve; inactive = flat fitted curve, though single readings scatter; no compound was filed as active;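 also: 0% = full activity with enzyme and -100% = basal without enzyme; dose as in the result columns while the protocol names 77 µM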
An asterisk follows results filed as active; u = inconclusive; x = no result given; & = joins results of further samples. These rows are one share of the data; the hit share may differ from the screen's.

Order of values – Rango dissoc inh, miR-21 reporter, Rango complex inh, GLA inh pH 4.5
CCOP(=O)(OCC)c1ccc(O)cc1
→ 7%, 0%, 1.5%, 6
O=C1NC(=O)C2(C(=O)N1)C(c1ccc(F)cc1)NC(=S)NC2c1ccc(F)cc1 (configuration not stated)
→ 1%, -2%, -0.5%, 8
C[C@]12CCC3C(CC[C@H]4C[C@@H](O)CC[C@]34C)C1CC[C@@H]2O (some centres not stated)
→ -9%, x, -2.3%, x
CC1CC(C)(O)CC(C(O)CC2CC(=O)NC(=O)C2)C1=O (configuration not stated)
→ 1%, x, 0.8%, x
O=c1c2ccccc2nc(-c2ccc([N+](=O)[O-])cc2)n1-c1ccccc1
→ -5%, -3%, 1.4%, -3
COc1ccc2c(c1)c(C(=O)O)c(C)n2C(C)C
→ u, -5%, -0.4%, -6
CC(=O)c1ccc(NC(=O)N2C[C@H]3C[C@@H](C2)c2cccc(=O)n2C3)cc1
→ -7%, -4%, -0.4%, x
COc1ccc(C2CC(c3c(O)n(CCc4ccccc4)c(=O)[nH]c3=O)=NN2)cc1OC (configuration not stated)
→ 14%, 3%, 1.0%, u
COCCn1c(O)c(/C=N/NC(=O)CSC(=S)N2CCCC2)c(=O)[nH]c1=S
→ u, x, u, x
COC(=O)C1=C(c2ccc(OCc3ccccc3)cc2)C[C@@H]2CC[C@H]1N2C(=O)NCCN1CCOCC1
→ -7%, x, 0.1%, x
OCCOc1ccccc1
→ 1%, x, 2.3%, x
OC(Cc1ccccc1)(c1ccccc1)C1CN2CCC1CC2 (configuration not stated)
→ -1%, 8%, 0.0%, 3
c1ccc([C@@H]2CO2)cc1
→ 7%, x, -0.2%, x
COc1cc(-c2ccc(=O)[nH]n2)ccc1OC(F)F
→ -1%, -17%, u, -5&-4&4&5&2
CCOc1cc2c(cc1OCC)-n1cccc1C(c1ccccc1OC)NC2 (configuration not stated)
→ -10%, 7%, -3.9%, x
CCN1C[C@]2(COC)CC[C@H](O)[C@@]34C5C[C@@H]6[C@@H](OC)C[C@@](O)(C5[C@H]6O)[C@](O)([C@@H](OC)C23)[C@@H]14 (some centres not stated)
→ -9%, x, -0.3%, x
CC(C)C12CN3CC(C(C)C)(CN(C1)C3c1cccnc1)C2=O (configuration not stated)
→ -1%, -6%, 3.8%, 15
CCNC(=O)[C@H]1O[C@@H](n2cnc3c(N)ncnc32)[C@H](O)[C@@H]1O
→ 1%, -36%, -2.9%, -7
CCOc1ccc(C=C2C(=O)NC(=S)NC2=O)cc1OCC
→ 15%, x, 1.3%, x
O=c1[nH]c(=S)[nH]c(O)c1N=Nc1cccc(S(=O)(=O)N2CCOCC2)c1
→ -15%, -16%, -1.3%, 0
CC[C@H]1CN2CCc3cc(OC)c(OC)cc3[C@@H]2C[C@@H]1C[C@H]1NCCc2cc(OC)c(OC)cc21
→ 0%, u, -3.3%, -1
COC(=O)CN1C(=O)C2(C(C(=O)OC)=C(N)Oc3ccccc32)C2=C1CC(C)(C)CC2=O (configuration not stated)
→ 1%, -4%, -5.2%, 10
Clc1ccccc1CN1CCN(c2ccccc2Cl)CC1
→ 4%, -4%, 3.0%, -7
COc1cc([C@H]2OC[C@H]3[C@@H]2CO[C@@H]3c2cc(OC)c(O[C@@H]3O[C@H](CO)[C@@H](O)[C@H](O)[C@H]3O)c(OC)c2)cc(OC)c1O[C@H]1O[C@@H](CO)[C@H](O)[C@@H](O)[C@@H]1O
→ -12%, x, u, x
CCCCc1nc2ccccc2c(=O)n1-c1ccc(O)cc1
→ 6%, -2%, 4.6%, -18
O=C(NCCCN1CC1)Nc1cccc2ccccc12
→ -8%, x, 0.2%, x
O=C1CC(N2CCC(n3c(=O)[nH]c4ccccc43)CC2)C(=O)N1Cc1ccccc1 (configuration not stated)
→ -8%, 10%, 2.9%, -6
COc1ccc(N(C)S(=O)(=O)c2ccc3c(c2)oc(=O)n3C)cc1
→ 7%, -6%, u, -5
NCCCC(=O)OC1N=C(c2ccccc2Cl)c2cc(Br)ccc2NC1=O (configuration not stated)
→ 16%, -2%, -2.6%, 5
COCCNC(=O)Cn1cc(C=C2C(=O)NC(=O)NC2=O)c2ccccc21
→ -3%, 1%, -2.3%, x

Profiles from above.
COCCNC(=O)Cn1cc(C=C2C(=O)NC(=O)NC2=O)c2ccccc21 reads Rango dissoc inh: -3%; miR-21 reporter: 1%; Rango complex inh: -2.3%; GLA inh pH 4.5: x
COC(=O)C1=C(c2ccc(OCc3ccccc3)cc2)C[C@@H]2CC[C@H]1N2C(=O)NCCN1CCOCC1 reads Rango dissoc inh: -7%; miR-21 reporter: x; Rango complex inh: 0.1%; GLA inh pH 4.5: x

In the list so far, 5 have sulfur.
Order of values – Rango dissoc inh, miR-21 reporter, Rango complex inh, GLA inh pH 4.5
O=C1NC(=O)C2(C(=O)N1)C(c1ccc(F)cc1)NC(=S)NC2c1ccc(F)cc1 (configuration not stated)
→ 1%, -2%, -0.5%, 8
COCCn1c(O)c(/C=N/NC(=O)CSC(=S)N2CCCC2)c(=O)[nH]c1=S
→ u, x, u, x
CCOc1ccc(C=C2C(=O)NC(=S)NC2=O)cc1OCC
→ 15%, x, 1.3%, x
O=c1[nH]c(=S)[nH]c(O)c1N=Nc1cccc(S(=O)(=O)N2CCOCC2)c1
→ -15%, -16%, -1.3%, 0
COc1ccc(N(C)S(=O)(=O)c2ccc3c(c2)oc(=O)n3C)cc1
→ 7%, -6%, u, -5

(more compounds)
Order of values – Rango dissoc inh, miR-21 reporter, Rango complex inh, GLA inh pH 4.5
COC(=O)C1=C(c2cc3ccccc3o2)C[C@@H]2CC[C@H]1N2C(=O)NCCNC(C)=O
→ -6%, x, -0.2%, x
Fc1ccc(CCNCc2cccc(Cl)c2)cc1
→ 0%, -7%, u, 16
NC(=O)c1ccc(C(=O)Nc2ccc([As](=O)(O)O)cc2)cc1
→ x, -2%, x, 2
CCOc1ccccc1N=C1SCCCN1C
→ 1%, 0%, -1.8%, -7
Cc1ccc2c(c1)N(C(=O)CCC(=O)N1CCC3(CC1)OCCO3)CCO2
→ -14%, 0%, -1.2%, x
CCOc1ccc2nc(N3CCC(C(=O)N4CCC5(CC4)OCCO5)CC3)sc2c1
→ -4%, -36%, 4.5%, -5
Cc1ccc(N2C(=O)NC(=O)/C(=C\C=C\c3ccco3)C2=O)cc1
→ -17%, u, u, 3
FC(F)(F)C1=NC(C(F)(F)F)=NP(N2CCOCC2)(N2CCOCC2)=N1
→ 8%, 0%, -0.5%, -6
COc1ccc(C2=NS(=O)(=O)N(C)C(C(=O)N3CCC4(CC3)OCCO4)=C2)cc1OC
→ 4%, -5%, 0.5%, x
O=C(O)C12C3CCCC1C32c1ccccc1 (configuration not stated)
→ 18%, 1%, 0.4%, -3
CN1CCCC1C(O)(c1ccccc1)c1ccccc1 (configuration not stated)
→ -10%, x, -0.8%, x
O=C(CN1CCN(Cc2cccc(Cl)c2)C1=O)N1CCC2(CC1)OCCO2
→ -4%, -5%, 0.1%, 4
Cc1ccccc1-n1c(O)c(/C=C/C=Nc2ccccc2)c(=O)[nH]c1=O
→ u, 5%, u, -13
O=c1[nH]c(=S)n(-c2ccc(F)cc2)c(O)c1/C=N/N1CCOCC1
→ -7%, -1%, u, 3
COC(=O)c1ccc(N2CCN(C)CC2)c([N+](=O)[O-])c1
→ 10%, -1%, 1.8%, -8
O=C(Cc1ccc(Br)cc1)N1CCN(Cc2ccccc2)CC1
→ -19%, 11%, -1.5%, 0
CC(C)n1c(=O)c(C=Nc2ccc(F)cc2)c(O)n(Cc2ccco2)c1=O
→ 8%, 2%, -1.8%, -3
Cn1c(O)c(C=NCCN2CCNCC2)c(=O)n(C)c1=O
→ 0%, -2%, u, -2
CC1CN1P(=O)(Oc1ccccc1)N1CC1C (configuration not stated)
→ -19%, x, -3.1%, x
C[C@@H]1CCC2[C@@H](C)C(=O)O[C@@H]3OC4(C)CCC1[C@@]23OO4 (some centres not stated)
→ 1%, x, 3.0%, x
O=C1NC(=S)NC(=O)C1c1ccccc1
→ 14%, x, u, x
c1cc2c(cc1[C@H]1OCC3C1CO[C@@H]3c1ccc3c(c1)OCO3)OCO2 (some centres not stated)
→ -3%, x, -0.6%, x
CN1C(=O)/C(=C\c2ccc(N3CCCCC3)o2)C(=O)NC1=S
→ 11%, -37%, 5.5%, -1
c1ccc(CCc2ccc3n2Cc2cnnn2-c2ccccc2-3)cc1
→ 0%, x, -0.7%, x
COc1ccc2oc3c(c2c1)NC(=O)CN=C3c1ccccc1
→ -1%, -11%, -0.9%, -7
COc1cc(OC)cc(-n2nc(C(=O)N3CCC4(CC3)OCCO4)c3ccccc3c2=O)c1
→ -10%, 2%, 2.5%, -10
COc1ccc(CNCC(=O)N2CCC3(CC2)OCCO3)cc1
→ -1%, -5%, 1.5%, 3
O=C1CCN(C(=O)C(Cl)Cl)N1
→ -3%, 1%, -0.3%, -3
S=P(N1CCCCCC1)(N1CC1)N1CC1
→ -4%, x, 2.0%, x
O=P(Nc1ccccc1Cl)(c1ccccc1)c1nc2c(s1)CCCC2 (configuration not stated)
→ 0%, -3%, -0.1%, -10
N#CC1c2ccccc2-n2nncc2CN1Cc1cc(Cl)cc(Cl)c1 (configuration not stated)
→ 4%, x, 2.3%, x
Cc1cccc(-n2c(C)nc3ccccc3c2=O)n1
→ -18%, -38%, -0.5%, 1
ClCCN(CCCl)c1ccc(C=Cc2ccncn2)cc1
→ u, x, u, x
CCCCn1c(O)c(C(CC)=NCCN2CCOCC2)c(=O)[nH]c1=O
→ -14%, 5%, 0.4%, 1
O=c1[nH]c(=O)n(Cc2ccco2)c(O)c1C=NCCN1CCNCC1
→ -2%, 1%, 1.1%, -10
COc1ccc(OC)c(N=Cc2c(O)n(Cc3ccccc3)c(=S)[nH]c2=O)c1
→ u, 3%, u, -6
CCN(CC)P(=O)(c1nccn1C)N(CC)CC
→ 0%, 0%, u, 0
O=C1NC(=S)NC(=O)C1Cc1ccccc1
→ 1%, x, -0.1%, x
Cc1ccc(C(=O)NC2CCN(S(=O)(=O)c3ccc(C)cc3)CC2)cc1
→ 8%, 1%, u, 2
CC(C)c1ccc(N2C(=O)CC(=O)NC2=O)cc1
→ -14%, -1%, -2.1%, x
CCN(CC)C(=O)c1ccc(NC(=S)NC(=O)CCc2ccccc2)cc1
→ -18%, 11%, 1.7%, x
CCOc1ccc(Cn2c(=O)oc3ccc(C)cc32)cc1OC
→ 18%, 0%, 6.7%, 6
Nc1nc(SCCC(F)=C(F)F)n[nH]1
→ -15%, -3%, -4.7%, 1
COC(=O)C1=C(c2c(C)noc2C)C[C@@H]2CC[C@H]1N2C(=O)N1CCc2cc(OC)c(OC)cc2C1
→ 1%, x, u, x
COC(=O)C1=C(c2ccc(F)cc2OCc2ccccc2)C[C@@H]2CC[C@H]1N2C(=O)N1CCC(C)CC1
→ 1%, x, -4.4%, x
COc1cccc(N2CCN(Cc3ccc(Cl)cc3)CC2)c1
→ -2%, -14%, -1.5%, -1
O=C(Nc1cccc(Cl)c1)OC1CN2CCC1CC2 (configuration not stated)
→ 0%, 12%, -0.5%, -15
Clc1ccc(OCC#CCN2CCCCCC2)cc1
→ 8%, -28%, 0.0%, -1
CC(ON1CC1(C(F)(F)F)C(F)(F)F)(C(N)=O)C(N)=O (configuration not stated)
→ -11%, -4%, -0.6%, -6
COC(=O)C1=Nc2ccccc2/C1=C\c1c(O)n(-c2ccc(OC)cc2)c(=O)[nH]c1=O
→ 0%, 7%, -5.7%, x
COC(=O)C1=C(c2ccc(OC(F)(F)F)cc2)C[C@@H]2CC[C@H]1N2C(=O)NCCO
→ -13%, x, -1.4%, x
CCc1cccc(CC)c1N(COC)C(=O)CCl
→ 0%, x, 3.2%, 2
COc1cccc(CCNCc2cccc(C(F)(F)F)c2)c1
→ -1%, -9%, 2.1%, -3
CCN(CCNc1ccc([N+](=O)[O-])c2cccnc12)S(=O)(=O)c1ccc(Cl)cc1
→ 41%, -3%, -0.5%, -9
C[C@H]1CCCC(=O)CCC/C=C/c2cc(O)cc(O)c2C(=O)O1
→ 18%, 13%, -1.2%, 3
C1=NCCc2c1[nH]c1ccccc21
→ 8%, x, u, x
CCC1CN2CCc3cc(OC)c(OC)cc3C2CC1CC1NCCc2c1[nH]c1ccc(O)cc21 (configuration not stated)
→ -11%, x, u, x

High-throughput results deposited in PubChem BioAssay by National Center for Advancing Translational Sciences (NCATS).
